# Bioassay records from PubChem BioAssay.
# Sa helicase inh = inhibitors of S. aureus replicative helicase, primary screen, biochemical, fluorescence unwinding readout. purified S. aureus helicase, fluorescence unwinding assay; about half of the hits fall short of the stated cut. inhibition, %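 (tested at about 80 µM)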. 120,000 compounds, 0.05% hits;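 active = both duplicates at 50% or more, or one of them with a favoured structure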;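 also: 0% = mean of negative control wells and 100% = mean of positive control wells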
# MgrA-DNA mod = S. aureus MgrA activity modulators, primary screen, biochemical, S. aureus Newman, fluorescence polarization; MgrA-DNA binding; 84,000 compounds, 0.13% hits; inhibition, %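 (about 10 µg/mL by stock and volumes)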;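 active = above 50% in either of two replicates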;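 also: 0% = protein plus DNA without compound and 100% = DNA alone without protein; higher means less MgrA bound to DNA so lower polarization; one replicate is shown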
# Numbers without * were called inactive; nt = not tested or not shown; & = joins results of further samples. Not all compounds are listed, so the mix of outcomes need not match the whole.
SMILES,Sa helicase inh,MgrA-DNA mod
CCc1ccc(-c2nn(-c3ccccc3)cc2/C=C2\SC(N)=NC2=O)cc1,-125,nt
Cc1c(C)c(C)c(S(=O)(=O)NC(C)(C)C)c(C)c1C,nt,-1.0
CC1C(=O)CCN(C(C)C)C1C (stereo unspecified),4,nt
O=C(c1ccccc1)c1cccc(NC(=O)c2cccnc2Oc2ccccc2)c1,nt,1.2
CC(C)c1ccc(N(CC(=O)Nc2ccc3c(c2)n(C)c(=O)n3C)S(C)(=O)=O)cc1,4,-4.2
CC(C)(COC(=O)Nc1ccc(Cl)cc1)n1cccc1,nt,-1.1
Cc1cc(C(=O)Nc2cccc3ncccc23)no1,-15,nt
CSc1n[nH]c(-c2cccs2)n1,nt,-0.1
CCCn1nc2ccccc2c1P(=NC(=O)Nc1cccc(Cl)c1)(N1CCOCC1)N1CCOCC1,0,nt
CC1CC1C(=O)Nc1ccccc1C#N (stereo unspecified),-28,1.8
CCOC(=O)c1cn[nH]c1NC(=S)Nc1ccccc1,28,nt
Cc1cc(NC(=O)CSc2ccccn2)no1,11,nt
N=C1SCC(=O)N1c1ccc(Cl)cc1Cl,nt,1.0
COc1ccc(CNc2ccccc2)cc1Br,15,-1.5
Cc1nn(C2CCS(=O)(=O)C2)c(Cl)c1/C=C/C(=O)OCCN1C(=O)c2ccccc2C1=O (stereo unspecified),5,nt
Cc1ccc(-n2c(=S)[nH]c3sc4c(c3c2=O)CCC4)cc1,nt,1.2
Cc1c(C#N)c2ccccc2n1CC(N)=O,11,1.8
Cc1oc(-c2ccc(Cl)cc2)cc1COC(=O)Nc1ccccc1,nt,0.8
COc1ccccc1N1CCN(S(=O)(=O)c2ccc3c(c2)C(C2CCCC2)C(=O)N3)CC1 (stereo unspecified),5,nt
CC(=O)[C@H]1CC[C@H]2[C@@H]3CCC4=CC(=O)CC[C@]4(C)[C@H]3CC[C@]12C,nt,0.0
CC(=O)Nc1ccc(S(=O)(=O)NC23CC4CC(CC(C4)C2)C3)cc1,nt,-1.4
COC(=O)c1sc(NC(=O)CN2CCOCC2)c(C(=O)OC)c1C,9,nt
C=CCNC(=O)c1ccc(OCCCC)cc1,2,0.6
CCOC(=O)c1cnc2cc(C(C)(C)C)[nH]n2c1=O,nt,3.7

# Profiles from above.
# `Cc1nn(C2CCS(=O)(=O)C2)c(Cl)c1/C=C/C(=O)OCCN1C(=O)c2ccccc2C1=O` (stereo unspecified) reads Sa helicase inh = 5; MgrA-DNA mod = nt
# `CC(=O)Nc1ccc(S(=O)(=O)NC23CC4CC(CC(C4)C2)C3)cc1` reads Sa helicase inh = nt; MgrA-DNA mod = -1.4
# `COc1ccccc1N1CCN(S(=O)(=O)c2ccc3c(c2)C(C2CCCC2)C(=O)N3)CC1` (stereo unspecified) reads Sa helicase inh = 5; MgrA-DNA mod = nt

# The results go on.
SMILES,Sa helicase inh,MgrA-DNA mod
CC(=O)Nc1cc(-c2ccc(Br)cc2)nn1Cc1ccc(Cl)cc1,15,-2.2
N#C/C(=C\c1ccc(O)cc1)C(N)=S,-6,nt
O=c1cc(CSC2=NCCS2)nc2sccn12,3,-1.4
CNS(=O)(=O)c1ccc(CCC(=O)N2CCCCC2)cc1,3,-1.0
COc1ccc(CCN2C(=O)/C(=C/c3ccccc3Cl)SC2=S)cc1OC,nt,-0.9
O=C(NC(Cc1ccccc1)C(=O)N1CCCCC1)c1cccs1 (stereo unspecified),-2,-6.1
CCN(CC)S(=O)(=O)c1cccc(C(=O)N=Nc2c(O)[nH]c3ccccc23)c1,-11,nt
CC1Cc2ccccc2N1C(=O)c1cccc(C(=O)N2c3ccccc3CC2C)n1 (stereo unspecified),-1,4.7
c1ccc(-c2noc(N3CCCC3)n2)cc1,-13,nt
CN(C)c1nc(Oc2ccc(=O)[nH]n2)nc(N2CCOCC2)n1,13,nt
COc1cccc(/C=N/NC(=O)c2cccc(Cl)c2)c1O,nt,0.5
O=C(Cn1cnc2c(cnn2-c2ccccc2)c1=O)NCc1ccccc1,2,nt
O=C(CCCC(=O)Nc1ccc(F)cc1)Nc1ccc(F)cc1,1,1.9
O=C(CSc1nnnn1-c1ccccc1)NCCC12CC3CC(CC(C3)C1)C2,7,-2.3
COC(=O)c1ccc(S(=O)(=O)N2CCCN(C(=O)OC(C)(C)C)CC2)n1C,-22,nt
COC(=O)/C=c1/s/c(=C(/C#N)C(N)=O)n(-c2ccccc2)c1=O,8,nt
OC(c1ccco1)c1nccc2ccccc12 (stereo unspecified),-2,nt
Cc1ccc(C(=O)Nc2cc3c(oc2=O)CC(C)(C)CC3=O)cc1,25,nt
CC1CCc2c(sc3nc(-c4ccccc4Cl)oc(=O)c23)C1 (stereo unspecified),nt,1.7
O=C(Nc1nsc(-c2ccccc2)n1)c1ccc(F)cc1,-6,nt
CC(=O)Oc1ccccc1C(=O)N1CCc2ccccc21,-4,1.4
COCCNc1ncc(C(=O)OC)c2ccccc12,23,nt
Fc1ccc2nc(Nc3nc4ccc(F)cc4s3)sc2c1,5,1.6
Cc1ccccc1/[N+]([O-])=C/c1ccncc1,-24,nt
O=C(CCNS(=O)(=O)c1ccc(Cl)cc1)N1CCN(c2ccccn2)CC1,11,-3.1
Cc1cc(Cl)c2cc(O)ccc2n1,24,nt
O=C(Oc1cccc2[nH]ccc12)c1c(F)cccc1F,nt,-1.8
O=C(c1ccc(S(=O)(=O)Nc2ccc3c(c2)OCCO3)s1)N1CCCC1,21,nt
O=C(NCc1ccccc1CN1CCCC1)c1cc(=O)[nH]c2ccccc12,13,nt
COC(=O)c1nnc(Nc2ccc(Oc3ccccc3)cc2)c2ccccc12,2,0.3
CC(OC(=O)Cc1c[nH]c2ccccc12)C(=O)NC1CCCC1 (stereo unspecified),7,17
COc1ccc(Cc2nnc(C(=O)NCc3ccccc3)o2)cc1OC,4,nt
NS(=O)(=O)c1ccc(N2C(=O)/C(=C\C=C\c3ccccc3)SC2=S)cc1,0,nt
Oc1oc(-c2ccccc2)cc1C=Nc1ccccc1,14,0.4
C=CCN(CC=C)S(=O)(=O)c1ccc(C(=O)N2CCCC2)cc1,3,nt
CCSc1nnc(CNC(=O)c2cccc(OC)c2)n1-c1ccc(F)cc1,9,nt
O=C(CN1CCc2ccccc2C1)NCc1ccc(F)cc1,2,-4.8
CC1CN(S(=O)(=O)c2ccc(C(=O)NC3=NCCS3)cc2)CC(C)O1 (stereo unspecified),-13,nt
CC(=O)N1CSCC1C(=O)O (stereo unspecified),6,nt
Cc1ccc2c(c1)NCC(C(=O)NC1CCCCC1)O2 (stereo unspecified),12,nt
CCn1c2c(c(=O)[nH]c1=O)C(c1ccc(OC)cc1)C1=C(N2)c2ccccc2C1=O (stereo unspecified),4,nt
O=C1N=C(c2cccc(O)c2)c2ccccc2Nc2ccccc21,12,0.8
N#Cc1ccc(-c2cccnc2)[nH]c1=O,-31,nt
Cc1ccc(-n2cc3cnnc(-c4ccccc4)c3n2)cc1,-4,nt
Cc1ccc(S(=O)(=O)/C(C#N)=C\c2cn(-c3ccccc3)nc2-c2cc3ccccc3o2)cc1,-17,nt
Cc1ccc(N2CSCC2=O)cc1,nt,-0.1
Cc1noc2c1C(c1cccnc1)C1=C(CCCC1=O)N2 (stereo unspecified),-14,nt
O=C(C1CCN(c2nc3ccccc3n3cccc23)CC1)N1CCN(c2ccccc2)CC1,27,nt
COc1ccc(-c2n[nH]c(=S)n2-c2cccc(OC)c2)cc1,nt,1.0
O=C(O)CCS(=O)(=O)c1ccc(-c2ccccc2)cc1,9,1.0
COc1ccc(Oc2ccc([N+](=O)[O-])cc2C(=O)NCC(=O)O)cc1,nt,0.7
CN(/C=C/C=[N+](C)c1ccccc1)c1ccccc1,1,-3.2
S=C(Nc1ccccc1)N1CCCCCC1,-4,nt
CCn1c(N)c(C(=O)c2cccc(S(=O)(=O)N(C)C3CCCCC3)c2)c(=O)[nH]c1=O,-2,nt
CC1=CC(C)(C)N(Cc2ccccc2)c2cc(C)ccc21,-29,nt
O=C(Cc1ccccc1)Sc1ccccc1C(=O)O,-9,-0.7
CCOC(=O)c1nn(-c2ccccc2)c(=O)c2c(N)scc12,-13,nt
O=C(C=C1SCCS1)C1CC1c1ccccc1 (stereo unspecified),-5,nt
Cc1cc(Cl)cc(C)c1OCC1COS(=O)O1 (stereo unspecified),5,-2.9
CC(C)(C)NC(=O)CCN1C(=O)/C(=C\c2ccco2)SC1=S,11,nt

# Sorted by length of the SMILES (low to high): part of the list above
SMILES,Sa helicase inh,MgrA-DNA mod
Cc1cc(Cl)cc(C)c1OCC1COS(=O)O1 (stereo unspecified),5,-2.9
CC1=CC(C)(C)N(Cc2ccccc2)c2cc(C)ccc21,-29,nt
CC(C)(C)NC(=O)CCN1C(=O)/C(=C\c2ccco2)SC1=S,11,nt

# (more compounds)
SMILES,Sa helicase inh,MgrA-DNA mod
CCN1CCN(c2nc(-c3cccc(Cl)c3)c3c(n2)-c2ccccc2OC3)CC1,21,1.0
COc1ccc(CN(Cc2cc3cccc(C)c3n3nnnc23)C(=O)N2CCOCC2)cc1,14,-2.0
COc1cc2c(cc1OC)C(C)N(C=C(C#N)C#N)CC2 (stereo unspecified),-9,nt
CC(C)c1ccc(N2C(=O)CSCC2(C(=O)NC2CCCCC2)c2ccc(Cl)cc2)cc1 (stereo unspecified),9,-1.9
CN(CCc1ccccn1)C(=S)NC(=O)c1ccco1,5,nt
COc1ccc(-n2nc(C(=O)NCC(=O)NC3CCCC(C)C3C)c3ccccc3c2=O)c(OC)c1 (stereo unspecified),22,nt
COc1ccccc1/C=C1\Cc2ccccc2C1=O,nt,-3.3
CC(c1ccc(-n2cncn2)cc1)N(C)S(=O)(=O)c1cccc(C#N)c1 (stereo unspecified),8,nt
CN(CC(=O)N1CCc2ccccc2C1)S(=O)(=O)c1ccc(Cl)cc1,-3,2.4
Cc1cccc(NC(=O)CCN2CCC(C)CC2)c1,1,0.0
CCCc1[nH]nc2c1C(CCc1ccccc1)C(C#N)=C(N)O2 (stereo unspecified),0,2.5
Cn1cc(Cl)c(/C=C(\C#N)S(=O)(=O)c2ccccc2)n1,nt,-0.4
CCc1ccc2[nH]c(=O)c(C(c3nnnn3C3CCCCC3)N3CCCC3)cc2c1 (stereo unspecified),12,-0.9
COC(=O)c1ccccc1NC(=O)C1=CCCCC1C(=O)O (stereo unspecified),nt,-1.1
CC1(C)Cc2ccccc2C(Nc2nc(-c3ccccc3)cs2)=N1,-9,3.9
Cc1nc(-c2ccc(S(=O)(=O)N3CCCc4ccccc43)s2)cs1,nt,-2.3
CN(C)c1ccc(C2CC(c3ccccc3)=NN2C(=O)c2ccc(F)cc2)cc1 (stereo unspecified),nt,1.1
CCCc1[nH]c(Br)nc1-c1ccccc1,15,-4.5
CCOC(=O)c1ccc(N2CCOCC2)c(N=Cc2cc(Br)ccc2O)c1,nt,-0.9
COc1ccc(C2CC(=O)C3=C(C2)NC(=O)CC3c2ccc(OC)c(OC)c2)cc1OC (stereo unspecified),32,nt
O=C(c1ccc2ccccc2n1)N1CCN(c2ccccc2O)CC1,2,-1.2
Cc1cccc(C)c1OCCCCN1CC(C)OC(C)C1 (stereo unspecified),9,-4.6
COc1ccc(N(C)C(=O)c2cc3c(=O)oc4ccccc4c3s2)cc1,9,-2.8
C#CCN(C)CCCOc1ccc(Cl)cc1Cl,nt,0.2
N#Cc1ccc2snnc2c1,-10,nt
COc1ccc(/C=N/N=C2\CC(C)(C)Cc3n[nH]c(=O)cc32)cc1OC,nt,2.1
Clc1ccc(-c2nnc3sc(-c4ccccc4)nn23)cc1,nt,-1.6
Cc1ccc(-c2cnc(NC(=O)CCC(=O)N3CCCCC3)n2C)cc1,-3,-2.6
COc1ccc(Br)cc1C=C1C(=O)NC(=O)NC1=O,nt,8.3
COc1ccccc1CNC(=O)c1nnc(Cc2ccc(F)cc2)o1,12,0.2
N#CCC(Cc1ccccc1)c1ccc2c(c1)OCO2 (stereo unspecified),3,-3.6
CN1CCC(NC(=O)c2cc(Br)ccc2Cl)CC1,2,1.1
O=C(c1cccc(COCC(F)(F)C(F)F)c1)N1CCN(c2ccccc2)CC1,11,nt
Cc1cc(NS(=O)(=O)c2ccc(NC(=S)NCc3ccccc3)cc2)no1,20,-2.6
O=C(CSc1ccc(F)cc1)N1CCCC1,5,0.4
CCOc1ccc2c(c1)sc1c(C)cc(=O)oc12,-14,0.2

# Gathered by group, those above containing a COOH group
SMILES,Sa helicase inh,MgrA-DNA mod
CC(=O)N1CSCC1C(=O)O (stereo unspecified),6,nt
O=C(O)CCS(=O)(=O)c1ccc(-c2ccccc2)cc1,9,1.0
COc1ccc(Oc2ccc([N+](=O)[O-])cc2C(=O)NCC(=O)O)cc1,nt,0.7
O=C(Cc1ccccc1)Sc1ccccc1C(=O)O,-9,-0.7
COC(=O)c1ccccc1NC(=O)C1=CCCCC1C(=O)O (stereo unspecified),nt,-1.1

# Additional structures follow.
SMILES,Sa helicase inh,MgrA-DNA mod
CCCNc1c(N)n(-c2ccccc2)c(=O)[nH]c1=O,1,9.4
Cc1cccc2c1NC(=O)C(c1ccccc1)C2=O (stereo unspecified),nt,-2.8
Cc1ccc2nc(CCCC(=O)O)[nH]c2c1,12,-5.2
CCSc1nnc(NC(=O)CSc2nccn2-c2ccccc2)s1,14,nt
CCOC(=O)c1nn(-c2ccc(F)cc2)c(=O)c2c(NC(=O)c3cc(OC)c(OC)c(OC)c3)scc12,1,nt
CSc1ncc(Cl)c(C(=O)N(Cc2ccccc2)c2ccccn2)n1,6,-0.5
Cc1c(C)c(C)c(C(=O)c2cccs2)c(C)c1C,nt,-2.4
Cc1ccccc1C(OCCN(C)C)c1ccccc1 (stereo unspecified),nt,-0.1&3.0
COc1ccc(-n2c(SCc3ccc(Br)cc3)nnc2-c2ccco2)cc1,nt,2.7
COC(=O)c1sccc1NC(=O)Cn1ncc2c1-c1cc(C)ccc1OC2,6,nt
O=C1NCCN1Cc1ccccc1,-1,2.1
CCOC(=O)Oc1cc2oc(=O)sc2cc1Cl,32,nt
O=C(NC1CCCCC1)C1c2cccn2CC(=O)N1CCCN1CCCC1=O (stereo unspecified),18,0.5
